Source: PubChem BioAssay
CtBP-E1A blk: blocks the CtBP interaction with E1A. actives 0.49% (n = 340,000). AlphaScreen GST-E1A/His-CtBP binding, 1536-well; stronger effect = lower value; control for the full effect not named in the record. AID 651724. activity change, % (test concentration not listed); in the data active means activity change below about -65%; inconclusive means about -30% to -65%; inactive means above about -30%; note: % is set by controls: 0 for no effect and ±100 for the full control effect; compound concentration not given in the record
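Homogeneous bead-based format: GST-tagged E1A captured on glutathione donor beads, His-tagged CtBP on nickel acceptor beads; compounds precede bead addition by 2 h at 37 °C.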
TRPML1 ag: agonists of human TRPML1 channel; Q9GZU1; TRPML1-expressing cells, Ca2+ dye fluorescence, FDSS; host cell line not named in the record; reference of the full effect not given here; activation, % (test concentration not listed); actives 0.12% (n = 410,000); in the data active = activation above about 50%; inconclusive = about 30% to 50%; inactive = below about 30%; note: 0% is about no effect; the text of the record puts the active cut at 80%
Target sequence (Q9GZU1 whole entry, looked up): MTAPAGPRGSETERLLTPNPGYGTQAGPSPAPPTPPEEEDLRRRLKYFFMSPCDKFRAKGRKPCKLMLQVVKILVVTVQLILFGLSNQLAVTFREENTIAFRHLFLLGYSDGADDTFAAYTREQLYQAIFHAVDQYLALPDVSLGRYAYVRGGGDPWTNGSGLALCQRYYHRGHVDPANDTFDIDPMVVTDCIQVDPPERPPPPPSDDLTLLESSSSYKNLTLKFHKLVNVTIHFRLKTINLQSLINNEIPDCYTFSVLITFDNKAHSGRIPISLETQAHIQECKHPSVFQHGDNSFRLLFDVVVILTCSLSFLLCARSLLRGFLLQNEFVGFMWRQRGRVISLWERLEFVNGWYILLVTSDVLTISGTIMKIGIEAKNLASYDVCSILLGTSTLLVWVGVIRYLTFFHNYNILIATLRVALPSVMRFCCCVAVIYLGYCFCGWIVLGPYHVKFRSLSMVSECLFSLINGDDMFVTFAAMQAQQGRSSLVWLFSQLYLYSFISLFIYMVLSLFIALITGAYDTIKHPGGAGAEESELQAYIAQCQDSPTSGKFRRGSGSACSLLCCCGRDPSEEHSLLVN
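In this qHTS format, compounds were pin-transferred onto Ca8-dye-loaded TRPML1-DL cells induced with Tet overnight, and intracellular Ca2+ fluorescence was recorded kinetically for 110 s after a 10 s baseline. A subsequent 4uM final 54-4 (EC80) addition followed by a second 110 s read served as the antagonist phase.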
TRPML1 inh: inhibitors of human TRPML1 channel; Q9GZU1; TRPML1-inducible cells, Ca2+ dye fluorescence, FDSS; stronger effect = lower value; inhibition of EC80 agonist-evoked calcium signal; actives 0.02% (n = 390,000); AID 624415; activity change, negative = inhibition, % (test concentration not listed); in the data active means activity change below about -50%; inconclusive means about -30% to -50%; inactive means above about -30%;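 note: stimulus is agonist 54-4 at its EC80 concentration; % is set by controls: 0 for no effect and ±100 for the full control effect; compound concentration not given in the record; the text of the record puts the active cut at -80%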
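TRPML1-DL cells, Tet-induced overnight (~16 h, 37 °C) at 1,500 cells/well, were loaded with Ca8 no-wash dye plus quencher for 45-90 min at room temperature. Compounds were pinned during FDSS kinetic reading; agonist 54-4 at EC80 (4 uM final) then added.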
PINK1 expr mod: changes PINK1 expression; PINK1 immunofluorescence, high-content cytometry, 24 h; AID 624263; Potency, µM (titrated, usually from 76.6 µM), without a hit: at the highest dose activation (PINK1 increase), most hits filed as activators; actives 0.2% (n = 410,000); active = well fitted activation curve with a large enough effect; inconclusive = small, poorly fitted or top-dose-only effect; inactive = flat fitted curve, though single readings scatter; cell line not stated here;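 note: potency is the fitted concentration of half-maximal effect; % of control where 0% means no effect; nearly all actives have a fitted effect of over 65% in size; a mitochondrial uncoupler was the plate control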
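Compound titrations (5 concentrations, 24 h) on a stable cell line; DMSO and CCCP controls. Endpoint: fixed-cell PINK1 immunofluorescence with mitochondrial, cell and nuclear markers, scanned by microplate cytometer.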
Six1-Eya2 blk: Six1/Eya2 interaction inhibition; Q15475+O00167; AlphaScreen GST-Six1/His-Eya2 binding, biochemical; stronger effect = lower value; control for the full effect not named in the record; activity change, % (concentration not given with the values); actives 0.56% (n = 360,000); in the data active = activity change below about -65%; inconclusive = about -30% to -65%; inactive = above about -30%; note: % is set by controls: 0 for no effect and ±100 for the full control effect
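AlphaScreen with GST-Six1 and His-Eya2 (5X mix: 250 nM and 500 nM), glutathione donor and nickel acceptor beads; buffer 50 mM Tris pH 8.0, 300 mM NaCl, 1 mM TCEP; 1 h at 37 C in the dark.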
D2 agonist: agonists of human D2 dopamine receptor (beta-arrestin) | P14416 | DiscoveRx PathHunter D2 beta-arrestin, luminescence, 90 min; 100% = 57 uM dopamine signal | activation, % (concentration not given with the values) | actives 0.084% (n = 360,000); in the data active = activation above about 40%; inconclusive = about 15% to 40%; inactive = below about 15%; note: compound concentration not given in the record; the text of the record calls up to 30% inactive
Target sequence (P14416 whole entry, looked up): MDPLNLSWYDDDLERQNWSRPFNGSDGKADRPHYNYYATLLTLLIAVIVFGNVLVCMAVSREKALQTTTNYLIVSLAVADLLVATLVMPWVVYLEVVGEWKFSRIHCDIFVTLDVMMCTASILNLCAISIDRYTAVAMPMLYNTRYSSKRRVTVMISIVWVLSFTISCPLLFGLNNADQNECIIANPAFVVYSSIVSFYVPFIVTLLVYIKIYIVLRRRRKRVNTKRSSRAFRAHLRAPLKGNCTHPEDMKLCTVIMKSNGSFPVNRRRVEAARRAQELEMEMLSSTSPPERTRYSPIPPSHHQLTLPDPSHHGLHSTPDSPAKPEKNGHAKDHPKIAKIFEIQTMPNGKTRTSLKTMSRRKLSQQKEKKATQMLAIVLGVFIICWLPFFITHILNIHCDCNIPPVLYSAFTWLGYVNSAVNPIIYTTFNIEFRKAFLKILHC
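Agonist mode: compounds alone added to overnight-plated D2 PathHunter cells for 90 min at 37 C, with 57 uM final dopamine (EC100) defining full response. Beta-arrestin recruitment detected by chemiluminescent reagent, read after 1 h at ambient temperature.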
The depositor's hits bear a star; ? = inconclusive; nt = no result given; [ ] = another dose, or the depositor's remark.

Every second line gives: CtBP-E1A blk, TRPML1 ag, TRPML1 inh, PINK1 expr mod, Six1-Eya2 blk, D2 agonist
- O=C(Nc1ccc(Cl)cc1C(=O)NCC1CCCO1)c1ccco1 (stereo unspecified)
  11, 1.3, -13, 2.6%[38.3 µM], 1, -0.5
- COc1ccc(N2CCN(Cc3cc(=O)oc4cc5c(cc34)CCCC5)CC2)cc1
  -1, -0.7, -15, 16%, -11, -3.4
- Cc1cccc(NC(=O)N2CCN(C(=O)c3nsc4ccccc34)CC2)c1C
  nt, 1.4, 8, -0.9%, nt, nt
- COc1ccc(CC2(CO)CCN(S(=O)(=O)c3c(C)nn(C)c3Cl)CC2)cc1
  1, -0.7, 9, 0.7%, 2, 1.3
- CC(=O)O[C@H]1CC[C@@]2(C)[C@@H](CC[C@@H]3[C@@H]2CC[C@]2(C)[C@@H](C(C)(C)O)C[C@@H]32)C1
  7, -0.2, 11, 0.9%, 4, -2.9
- C=CCNC(=O)C1CC(=O)N(c2ccc(Br)cc2)C1 (stereo unspecified)
  7, -0.7, 7, 2.6%, -2, -0.1
- COc1cc2c(cc1OC)-c1cc(NC3CCCC3)nc(=O)n1CC2
  ?, -0.4, 19, 1.1%, ?, 2.1
- CCC(=O)N1c2ccccc2CC1C(=O)NCCCN1CCN(c2ccc(F)cc2)CC1 (stereo unspecified)
  nt, 0.6, -11, 7.0%, nt, nt
- CC(=O)c1ccc(N2CCN(C(=O)Cc3ccccc3)CC2)c(F)c1
  6, -1.1, 14, -0.1%, 0, 2.6
- O=C(NCCc1ccccc1)c1cc(-c2ccc(Br)cc2)on1
  nt, 0.1, 4, 2.4%, nt, nt
- COc1ccccc1N1CCN(C(=O)COc2ccc(C)cc2Br)CC1
  -2, 1.0, 2, 0.0%, -3, -0.6
- CCOC(=O)C(=CNc1cc(C)ccn1)C(=O)OCC
  0, 2.1, 8, 0.2%, 12, 5.0
- CCc1nnc(NC(=O)CSc2nccn2-c2ccccc2)s1
  -10, 0.4, 10, -1.8%, 4, -1.6
- O=C(CSc1ccccn1)N1CCNC1=O
  -2, 0.4, -20, 1.3%, 0, 0.4
- Cc1sc2ncnc(N3CCCC(C)C3)c2c1C (stereo unspecified)
  10, -1.1, -9, 1.6%, 1, -0.5
- CCOc1ccc(CCNC(=O)c2nnn(CC(=O)Nc3ccccc3C)c2N)cc1OCC
  0, 0.3, 24, -0.8%, 3, -0.7
- CC1Cc2ccccc2N1S(=O)(=O)c1cccc(C(=O)NCC(c2ccco2)N2CCCC2)c1 (stereo unspecified)
  3, 0.5, 2, -1.3%, 0, -1.8
- CCC(CC)c1nnc(NC(=O)c2ccc(N3CCCC3=O)cc2)s1
  -8, 0.2, -23, 7.4%[38.3 µM], -5, -0.5
- CCOc1ccccc1C1C(C#N)=C(N)N(N(C)C)C2=C1C(=O)CCC2 (stereo unspecified)
  -14, -1.3, -7, 3.7%, 1, -2.3
- Cc1cccc(OCC(=O)Nc2ccc(N3CCN(C(=O)c4ccccc4)CC3)cc2)c1C
  2, 0.7, 2, 5.3%, -5, 9.2
- COc1cccc(CNC(=O)c2cccnc2Sc2ccc(Cl)cc2)c1
  1, 2.3, 11, 3.1%, -4, 3.2
- Cc1ccc(S(=O)(=O)CCc2nnc(N)s2)cc1C
  9, 0.6, 5, nt, 1, -1.3
- c1ccc(C(c2nnnn2Cc2ccco2)N2CCN(C3CCCC3)CC2)cc1 (stereo unspecified)
  4, -0.7, 12, -0.6%, 4, -2.7
- CC(C)c1ccc(NC(=O)c2cccc3c2C(=O)N(C2CCCCC2)C3)cc1
  nt, 2.4, 9, 4.7%, nt, nt
- COc1cccc(NC(=O)CN(C)C(C)C(=O)N2CCCCC2)c1 (stereo unspecified)
  -23, -0.5, -13, -2.0%, -10, 1.5
- COc1ccc(-c2noc(-c3ccc(NCCc4ccccc4)c([N+](=O)[O-])c3)n2)cc1OC
  nt, -0.7, 5, 7.4%, nt, nt
- O=C(Cc1ccc(Cl)c(Cl)c1)N1CCOCC1
  -12, 1.4, 34, -0.6%, -1, 6.9
- Cn1c(=O)cc(OCC(=O)NC2CCCCC2)c2ccccc21
  -1, -0.2, 13, nt, 12, 0.1
- CCOC(=O)c1cnc2c(C(=O)OCC)cnn2c1N
  -1, -0.1, -14, -0.8%, -14, -5.9
- O=[N+]([O-])c1ccc(S(=O)(=O)N2CCN(c3ccccn3)CC2)cc1
  4, -0.2, -6, 1.1%, 3, -1.6

Continued.
Every second line gives: CtBP-E1A blk, TRPML1 ag, TRPML1 inh, PINK1 expr mod, Six1-Eya2 blk, D2 agonist
- CCN1/C(=N\N)c2cccc3cccc1c23
  -27, 2.7, 9, 1.6%, ?, -18
- CSCCC(NC(=O)CCC(=O)OCC(=O)[C@@]1(O)CCC2[C@@H]3CCC4=CC(=O)C=C[C@]4(C)C3[C@@H](O)C[C@@]21C)C(=O)O (stereo partly specified)
  -5, 0.1, -10, 2.1%, -10, 2.2
- CCCOc1ccccc1/C=C1\SC(N)=NC1=O
  -2, 1.3, 16, -0.3%, -3, 3.1
- CCCCCNC(=O)[C@@H]1CSC2c3ccccc3C(=O)N21 (stereo partly specified)
  nt, 2.0, 11, 0.5%, 11, 3.9
- COc1ccc(N(CC(=O)NCc2ccc3c(c2)OCO3)S(=O)(=O)c2ccc(O)c(C(=O)O)c2)cc1
  12, 2.2, 51, -0.1%, 7, -0.2
- CN(C)S(=O)(=O)c1ccc(C(=O)Nc2ccc3nc(N4CCOCC4)sc3c2)cc1
  -10, 0.3, 9, 4.1%, 8, -0.1
- OCCNCCCCOc1ccc(F)cc1
  0, -0.3, -3, 8.0%[38.3 µM], -2, -0.9
- Cc1nn(-c2cccc(C(F)(F)F)c2)c(=O)c2ccccc12
  13, 1.2, -4, -0.4%, 4, 6.7
- O=C(O)c1ccc(-n2nnnc2SCc2ccccc2Br)cc1
  nt, -0.3, -12, 0.6%, 1, 0.6
- NC(=O)C1CCN(Cc2nc3c(Br)cc(Br)cc3c(=O)[nH]2)CC1
  -4, 0.0, 3, -0.8%, -21, -2.6
- COc1cccc(CNC(=O)c2ccc3c(c2)nc2n3CCOC2)c1OC
  nt, -1.0, -5, 0.6%, nt, nt
- C=CCn1c(SCCN2CCOCC2)nc2c1c(=O)[nH]c(=O)n2C
  -1, 1.2, 12, -0.5%, -1, -1.9
- CSc1nc2ccc(NS(=O)(=O)c3ccc([N+](=O)[O-])cc3)cc2s1
  -16, 0.4, -4, -0.1%, -5, -1.8
- Cc1ccc(NC(=O)COC(=O)Cn2cnc3ccccc32)cc1S(=O)(=O)N(C)C
  -2, -0.3, 2, 3.9%, -1, -2.9
- Cc1ccc(-c2cc(C(F)F)n3ncc(C(=O)N4CCN5CCCC5C4)c3n2)cc1 (stereo unspecified)
  -11, -1.6, -2, -1.7%, 3, -3.6
- Cc1nc2ccc(C(=O)N3c4ccccc4CC3C)cc2s1 (stereo unspecified)
  -11, 1.3, -5, 11%, 5, -2.5
- Cn1c(Sc2ccc([N+](=O)[O-])cc2C(F)(F)F)nnc1-c1ccccc1
  -3, -0.6, 0, 0.0%, -3, 2.8
- Cc1nnc(N2C(=O)C(=O)/C(=C(\O)c3ccc4c(c3)CC(C)O4)C2c2ccccc2)s1 (stereo unspecified)
  5, 3.7, 12, 0.1%, 4, -1.6
- Cc1nc(N2CCN(Cc3ccc(Cl)cc3)CC2)c2oc3ccccc3c2n1
  -4, 3.1, 39, 9.5%, -16, 1.7
- CCCc1nn2c(=O)cc(COc3ccc(NC(=O)c4ccco4)cc3)nc2s1
  2, 0.9, -4, 9.4%, 3, 5.5
- COc1cc(/C=C2/C(=O)ON=C2C)ccc1OCc1ccccc1F
  -11, -0.3, 1, nt, -6, -3.1
- Cc1ccccc1CSc1cn(CC(=O)N2CCCCC2)c2ccccc12
  nt, 0.1, 19, 0.5%, nt, nt
- COc1ccc(C(=O)Nc2c(O)ccc3ccccc23)cc1OC
  -2, 0.4, 38, 2.6%, -8, -0.1
- O=C(Cc1ccccc1[N+](=O)[O-])N1CCN(S(=O)(=O)c2ccccc2)CC1
  2, 0.8, -4, 2.6%, 2, 0.3
- Cc1ccc(NC(=O)c2ccc3c(c2)OCCO3)nc1
  5, 0.0, -3, 6.5%, 0, -2.8
- O=S(=O)(c1ccc2nc(SCc3ccc(Cl)cc3)[nH]c2c1)N1CCOCC1
  2, -0.4, -13, ?, 5, 1.2
- O=C(COC(=O)c1ccco1)Nc1ccc([N+](=O)[O-])cc1Cl
  nt, -0.5, -1, 0.7%, -6, -2.0
- CC(C)NC(=O)Nc1ccc2c(c1)C(=O)N([C@H](C)CO)C[C@H](C)[C@@H](CN(C)C(=O)Nc1ccc3c(c1)OCO3)O2
  6, -0.7, -5, -0.2%, 3, 1.3
- NC(=O)COC(=O)CC(c1ccccc1)c1ccccc1
  5, 0.9, 4, -1.0%, -1, -0.3
- Cc1ccc(C(=O)NCCCN2CCOCC2)c(C)c1
  -2, 0.3, 10, 1.0%, 3, 0.4

3 compounds already listed, sorted by the value under TRPML1 inh, smallest number first:
mol	CtBP-E1A blk	TRPML1 inh	PINK1 expr mod	Six1-Eya2 blk	D2 agonist
O=S(=O)(c1ccc2nc(SCc3ccc(Cl)cc3)[nH]c2c1)N1CCOCC1	2	-13	?	5	1.2
CCCc1nn2c(=O)cc(COc3ccc(NC(=O)c4ccco4)cc3)nc2s1	2	-4	9.4%	3	5.5
CN(C)S(=O)(=O)c1ccc(C(=O)Nc2ccc3nc(N4CCOCC4)sc3c2)cc1	-10	9	4.1%	8	-0.1

(cont.)
Every second line gives: CtBP-E1A blk, TRPML1 ag, TRPML1 inh, PINK1 expr mod, Six1-Eya2 blk, D2 agonist
- COc1cccc(CNC(=O)c2ccc3c(c2)nc2n3CCOC2)c1
  nt, -0.3, -19, 0.4%, nt, nt
- CSc1nccn1CC(=O)Nc1ccc(F)cc1
  1, -0.2, 1, -0.3%, -1, -1.0
- Cc1ccc(S(=O)(=O)N2CCCC2CNC(=O)c2ccc(F)c(F)c2)cc1 (stereo unspecified)
  0, 2.1, 3, 5.1%, 5, -3.0
- COc1ccc(C(=O)NC2CC2)cc1OC1CCN(Cc2ccc(NC(C)=O)cc2)CC1
  8, -0.7, 9, 2.5%, 2, -8.9
- COc1ccc(CN2C(=O)c3ccccc3C2C(=O)NCc2cccnc2)c(OC)c1 (stereo unspecified)
  -2, -0.2, -17, 0.8%, 8, -1.0
- c1ccc(CNC2=NCCCC2)cc1
  -1, 0.8, -10, -1.1%, 17, -0.6
- COc1ccc(CCNC(=O)COc2ccc(S(=O)(=O)NC(C)C)cc2)cc1OC
  3, 0.0, -16, -0.7%, 1, -5.2
- Cn1c(=S)[nH]c2cccnc21
  1, -0.3, 4, -1.7%, -7, -5.8

Entries of single compounds, quoted from the list.
Entry for COc1ccc(CN2C(=O)c3ccccc3C2C(=O)NCc2cccnc2)c(OC)c1 (stereo unspecified) = CtBP-E1A blk = -2; TRPML1 ag = -0.2; TRPML1 inh = -17; PINK1 expr mod = 0.8%; Six1-Eya2 blk = 8; D2 agonist = -1.0
Entry for O=C(NCCc1ccccc1)c1cc(-c2ccc(Br)cc2)on1 = CtBP-E1A blk = nt; TRPML1 ag = 0.1; TRPML1 inh = 4; PINK1 expr mod = 2.4%; Six1-Eya2 blk = nt; D2 agonist = nt
